From PubChem
HPGD inh = inhibitors of human 15-hydroxyprostaglandin dehydrogenase (HPGD). P15428. purified HPGD, NADH fluorescence kinetic, PGE2 substrate. Potency, µM, without a hit: top-dose activity change, negative = inhibition, actives largely listed as inhibitors. 150,000 compounds, 4.3% hits. AID 894; active = well fitted inhibition curve with a large enough effect (not every such curve was filed as active); inconclusive = small, poorly fitted or top-dose-only effect, or another doubt; inactive = no such curve, though single readings can be large or run the other way;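 note: top concentration of the series not given in the record; plate controls included wells without enzyme; inactives centre near -10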
Target sequence (P15428 whole entry, looked up): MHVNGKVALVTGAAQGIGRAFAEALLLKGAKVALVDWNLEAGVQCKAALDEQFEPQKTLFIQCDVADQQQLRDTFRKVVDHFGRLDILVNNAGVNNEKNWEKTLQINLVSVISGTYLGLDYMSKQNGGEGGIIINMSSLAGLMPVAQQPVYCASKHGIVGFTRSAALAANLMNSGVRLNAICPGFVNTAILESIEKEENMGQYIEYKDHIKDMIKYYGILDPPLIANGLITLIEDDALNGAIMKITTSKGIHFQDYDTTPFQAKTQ
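NADH formation kinetics: reaction with 30 uM PGE2 and 1 mM NAD+ (final), 20 nM enzyme, Tris-HCl pH 8 with Tween 20, after 15 min compound preincubation at room temperature. Fluorescence change, last versus first of five reads.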
* = called active by the depositor; u = inconclusive. % is set by controls: 0 for no effect and ±100 for the full control effect; potency is the fitted concentration of half-maximal effect. The list is partial, so the mix of outcomes need not match the whole.

HPGD inh | canonical_smiles
-10.3% | CCC(C)NC(=O)Cn1cc2c(n1)CCC(C)C2 (stereo not drawn)
-5.1% | Oc1ccc(C(=S)N2CCCCC2)cc1Cl
-12.5% | Cc1cc(C)n(-c2cc(N3CCOCC3)ncn2)n1
-12.1% | CC1(C)CC(=O)C(Sc2nnc(-c3ccc(O)cc3)n2CC2CCCO2)C(=O)C1 (stereo not drawn)
-20.3% | O=C1NCCCN1Cc1ccc(F)cc1Cl
8.1% | COC(=O)[C@@H](NC(=O)N1CCN(c2cccc(C(F)(F)F)c2)CC1)C(C)C
-12.0% | CCN(C(=O)COC(=O)c1cccnc1SC)C1CCS(=O)(=O)C1 (stereo not drawn)
-12.5% | COc1cccc(-c2ccc(C#N)c(SCC(=O)NCCc3ccccc3)n2)c1
-5.6% | Cc1occc(=O)c1OC(=O)Nc1ccc(Cl)c(Cl)c1
-15.4% | CCOC(=O)N1CCC(n2c(SCC(=O)NCc3ccco3)nc3ccsc3c2=O)CC1

Another view of part of the listing above:
Structure	HPGD inh
COc1cccc(-c2ccc(C#N)c(SCC(=O)NCCc3ccccc3)n2)c1	-12.5%
Cc1occc(=O)c1OC(=O)Nc1ccc(Cl)c(Cl)c1	-5.6%

Next section
HPGD inh | canonical_smiles
-9.0% | COCCNC(=O)COC(=O)CSCc1nc2ccccc2s1
-8.2% | O=C(c1cc(-c2ccncc2)nc2ccccc12)N1CCN(c2ccccn2)CC1
-11.9% | CCCCC/C=C\C/C=C\CCCCCCCC(=O)NCC(=O)O
-10.2% | CCN(CC)CCCOc1nc(C)nc2c1oc1ccccc12
6.5% | CCCCN1C(=O)NC(NC(C)=O)(C(F)(F)F)C1=O (stereo not drawn)
-19.7% | O=C(COc1ccc(Cl)cc1Cl)Nc1noc2ccccc12
-16.2% | O=C(N/N=C\c1ccc(F)cc1)c1ccc(Cn2cc(Br)c([N+](=O)[O-])n2)o1
15.8µM* | CCOc1cc(/C=C2\N=C(SC)SC2=O)cc([N+](=O)[O-])c1OC(C)=O
1.9% | CNS(=O)(=O)c1cc(OC)ccc1OC
u | Cc1noc(C)c1C(=O)N1CCC2(CC1)CN(c1ccccn1)C2
-1.9% | COC(=O)C(/C=N/OCc1ccc([N+](=O)[O-])cc1)NC(=O)c1ccccc1 (stereo not drawn)
-18.9% | O=C(NCc1ccccc1)C1CCN(S(=O)(=O)N2CCOCC2)CC1
-5.8% | Cc1occc1C(=O)NNC(=S)Nc1ccccc1C(F)(F)F
u | COc1ccc(C2C3=C(CC(C)(C)CC3=O)Nc3c2c(=O)[nH]c(=O)n3Cc2ccccc2)cc1 (stereo not drawn)
-4.3% | Cc1nc2ccc(Cl)cc2nc(C)/c1=N\O
u | CC(=O)CCC(=O)c1ccc2ccccc2c1
-3.3% | CCOC(=O)c1c(C)[nH]c(O)c1C=Nc1ccc(Cl)cc1
-4.9% | C=CCN=C(C)C1=C(O)CCC1=O
-17.8% | O=C(Nc1sc2c(c1C(=O)c1ccc(Cl)cc1)CCCC2)c1cccnc1
1.6% | CCOc1ccccc1OCCCNCc1ccco1
2.82µM* | O=C(c1ccc(C(F)(F)F)cc1)N1CCCCC1
-3.5% | CCCCn1c(SCc2nc(N)nc(N3CCCCC3)n2)nc2c1c(=O)n(C)c(=O)n2C
-9.9% | Cc1n[nH]c(C)c1CCc1nc2c3ccccc3nc(SCC(=O)Nc3ccccc3F)n2n1
-9.8% | CCCCc1nc2c(c3c1C[C@H](C)OC3)CN(C(=O)COC)CC2
-1.6% | CCOc1ccc(Cl)cc1S(=O)(=O)n1cnc2ccccc21
-5.1% | CC(=O)Nc1ccc(S(=O)(=O)CCC(=O)O)cc1
-8.8% | CCOc1ccccc1NC(=O)c1ccccc1NS(C)(=O)=O
-0.6% | O=C(O)c1sccc1SCc1ccc(Cl)cc1Cl
2.7% | COc1ccc(NC(=O)C2CCCN2C(=O)NCc2ccccc2)cc1OC (stereo not drawn)
-3.9% | CC1CCCCN1C(=O)Cn1cc(C=O)c2ccccc21 (stereo not drawn)
4.7% | Cc1ccc(OC(=O)C(F)(F)F)c2c1NCCC2
-7.7% | CCn1c(N2CCC(Cc3ccccc3)CC2)nc2c1c(=O)[nH]c(=O)n2C
-19.1% | COCc1cc(=O)n2c(-c3ccc(C)cc3)n[nH]c2n1
-10.1% | Cc1ccc2c(c1)nnn2C1CCN(S(=O)(=O)c2ccc(C(=O)N(C)C)cc2)CC1
-8.0% | Cc1ccc(CNC(=O)[C@@H]2CCC(=O)N2Cc2ccco2)cc1
-5.5% | COc1cc(C(=O)NCCOc2ccccc2)c(Br)c(OC)c1OC
-11.8% | COc1ccc(CN2C(=O)c3ccccc3C2=O)cc1C(=O)OC(C)C(=O)NC(N)=O (stereo not drawn)
22.4µM* | c1ccc(N2CCN(c3cnc4ccccc4n3)CC2)cc1
-19.6% | O=C(CSc1nnc(-c2cccs2)o1)OC1CCCCC1
-3.5% | CSc1ccc(CNC2CC2)cc1

Part of the list above, as labelled records.
mol: Cc1ccc2c(c1)nnn2C1CCN(S(=O)(=O)c2ccc(C(=O)N(C)C)cc2)CC1
  HPGD inh: -10.1%

mol: O=C(CSc1nnc(-c2cccs2)o1)OC1CCCCC1
  HPGD inh: -19.6%

mol: COc1ccc(CN2C(=O)c3ccccc3C2=O)cc1C(=O)OC(C)C(=O)NC(N)=O (stereo not drawn)
  HPGD inh: -11.8%

mol: Cc1ccc(OC(=O)C(F)(F)F)c2c1NCCC2
  HPGD inh: 4.7%

(list continues)
HPGD inh | canonical_smiles
-17.7% | CC(C)c1ccc2c(c1)CCC1C(C)(C(N)=O)CCCC21C (stereo not drawn)
-2.4% | Cc1cccc(NC(=O)CSc2nc3c(oc4ccccc43)c(=O)n2-c2ccccc2)c1
-8.8% | Cc1nn(CCOc2ccccc2)c(=O)n1-c1c(F)cccc1F
-5.7% | CC1=CCC(C(=O)O)C(C(=O)O)C1 (stereo not drawn)
-7.6% | O=C(CN1C(=O)CSC1=O)NCc1ccccc1
u | CCOC(=O)c1cnc(-n2cc(C)cn2)nc1NCc1ccc2c(c1)OCO2
-13.6% | CCOC(=O)c1cnn(-c2ncnc3sc(C)c(C)c23)c1N
-11.6% | O=C(Nc1ccc(Cc2ccncc2)cc1)c1ccco1
-2.1% | COc1cccc(NC(=O)C2CC2(c2cccc(OC)c2)c2cccc(OC)c2)c1 (stereo not drawn)
-6.2% | Cc1c(O)c(S(=O)(=O)c2ccccc2)c(=O)n(-c2ccccc2)c1-c1ccccc1
0.9% | O=C(C1CCN(S(=O)(=O)c2cnc[nH]2)CC1)N1CCn2c1nc1ccccc12
-13.3% | O=C(COC(=O)c1ccc2c(c1)OCCO2)NCCC1=CCCCC1
-21.1% | COc1ccc(-c2nnc(SCc3cc(C)cc(C)c3)o2)cc1
-0.7% | O=C(CN1CCN(c2ccc(Cl)cc2)CC1)Nc1cccc(F)c1
5.0% | CCOC(=O)C1=C(C)NC(SC)=NC1c1ccccc1 (stereo not drawn)
-1.8% | COc1ccc(S(=O)(=O)NNC(=O)C2Cc3c(ccc4ccccc34)O2)cc1 (stereo not drawn)
-7.4% | C=C(C)Cn1c(=O)c(NC(=O)c2ccccc2)c2n(c1=S)CCC2
-5.8% | CCOC(=O)C1CCCN(CC(=O)NC2=Nc3ccccc3N=C(C)C2c2ccccc2)C1 (stereo not drawn)
-16.8% | COc1ccccc1NS(=O)(=O)c1cc(NC(=O)c2cccs2)ccc1N1CCCCC1
-9.0% | Cc1cc(Br)c2c(c1)C(O)(N1CCCCC1C)C(=O)N2 (stereo not drawn)
-9.2% | NC(=O)C1(N2CCCCC2)CCN(C(=O)Nc2ccccc2C(F)(F)F)CC1
-8.9% | CCC(=O)N1CCc2cc(S(=O)(=O)CCC(=O)NCCc3ccccc3)ccc21
u | Cc1cc2cc(C#N)c(N3CCN(S(C)(=O)=O)CC3)nc2cc1C
-4.8% | CCn1c(SCC(=O)N2CCN(c3ccccc3)CC2)nnc1-c1ccoc1C
-10.1% | N[C@H]1CCN(O)C1=O
-1.7% | COc1ccc(C(=O)Nc2ccc3c(c2)OCCO3)cc1
0.1% | O=C(NCCOc1nc(N2CCOCC2)nc(N2CCOCC2)n1)Nc1ccc(Cl)cc1
-15.4% | Cn1c(N)c(C(=O)COC(=O)CNS(=O)(=O)c2ccc(Cl)c(Cl)c2)c(=O)n(C)c1=O
-18.8% | CCOc1ccc(NC(=S)N2CCC(N(C)CCN3CCOCC3)CC2)cc1
-12.0% | Cc1cc(C)nc(SCC(=O)c2ccc([N+](=O)[O-])cc2)n1
-7.9% | CCc1c(C)c2nncn2[nH]c1=O
-11.4% | Cc1c(CN(C)C)c2c(n1C)C(=O)c1ccc(Br)cc1-2
-2.2% | COc1ccccc1C1CC(=O)NC(C)=C1C(=O)OCC(C)C (stereo not drawn)
u | C=CCn1c(=O)c2c(nc(-c3ccc(S(=O)(=O)O)cc3)n2C)n(C)c1=O
-11.0% | O=C(CCn1[nH]c(=O)c2ccccc2c1=O)NCCO
-15.1% | CC(C)CN=Cc1c(O)c([N+](=O)[O-])cc2oc3c(c12)CCCC3
-15.2% | CCOC(=O)Cc1csc(NC(=O)CSc2nnc(Cc3csc(N)n3)n2C)n1
-4.2% | CCCC(=O)NCCCc1nc2ccccc2[nH]1
u | CCn1c2ccccc2c2cc(/C=N/n3cnnc3)ccc21
-6.8% | CCOC(=O)CSc1nnc(CNC(=O)c2ccc(OC)cc2)n1Cc1ccccc1
5.2% | CCOc1cc(C2NC(=O)NC(C)=C2C(=O)OCc2ccccc2)ccc1O (stereo not drawn)
-21.3% | C/C(=N/NC(=O)Cc1cc(=O)[nH][nH]1)c1ccc([N+](=O)[O-])cc1
-16.3% | N#Cc1cc2ccc(N3CCOCC3)cc2cc1C#N
-25.5% | CC(C)Sc1nnc(NC(=O)C2CC2)s1
0.6% | Cc1ccc(CSc2nnc(C(F)(F)F)n2Cc2ccc(F)cc2)cc1
-11.8% | C=CCS(=O)(=O)c1nc2ccccc2s1
-15.7% | CN(C1CCCC1)C1CCN(C(=O)CNC(=O)/C=C/c2ccc(F)cc2)CC1
-5.4% | CSCCC1NC2(C(=O)Nc3c(C)cc(Cl)cc32)[C@@H]2C(=O)N(C3CCCC3)C(=O)[C@H]12 (stereo partly drawn)
-5.3% | O=C(CN1C(=O)CC(c2ccco2)Sc2ccccc21)NCc1ccc2c(c1)OCO2 (stereo not drawn)
-25.2% | C=CCn1c(COc2cccc3ccc(C)nc23)nnc1SCC(=O)O

Next part
HPGD inh | canonical_smiles
-17.0% | COc1cc(Br)c(CCNC(=O)Cc2ccccc2)cc1OC
-13.2% | Cc1c(Cl)cccc1NC(=S)N1CCC(C(N)=O)(N2CCCCC2)CC1
u | CCOc1ccc(-n2nc3c(=O)n(CCN4CCCCC4)nc(C)c3c2C)cc1
-12.6% | Nc1cc(-c2ccc(Br)cc2)[nH]n1
-11.7% | CCCNC(=O)c1ccc(N(Cc2ccccc2)S(C)(=O)=O)cc1
-28.9% | CCOC(=O)c1ccc(N2C(=O)c3n[nH]c(C)c3C2c2ccco2)cc1 (stereo not drawn)
-26.4% | Cc1cccc(CSc2nncc(=O)[nH]2)c1
-18.5% | COc1ccnc(NCc2cccc(C(F)(F)F)c2)c1C#N
2.9% | COc1cc(OC)cc(C(=O)NCCCN2CCOCC2)c1
-3.5% | Cc1cccc(Nc2nnc(SCC(=O)NCc3cccs3)s2)c1C
-19.4% | CC(OC(=O)CCN1C(=O)c2cccc([N+](=O)[O-])c2C1=O)C(=O)Nc1cc(Cl)cc(Cl)c1 (stereo not drawn)
-6.2% | CCCN1C(=O)c2cc(C(=O)NCCc3cccc(C)c3)ccc2C1O (stereo not drawn)
u | Cc1cc(NC(=O)c2ccoc2C)no1
u | O=C(CN1CCN(Cc2ccccc2)C1=O)NCc1ccc(Cl)cc1
-12.5% | O=C(CCn1c(=O)c2sccc2n(CC(=O)OCc2ccccc2)c1=O)NCc1ccccc1
-7.3% | Cc1ccc(C(=O)CC2C(=O)N(c3ccccc3)C(=S)N2c2ccccc2)cc1 (stereo not drawn)
-11.5% | O=C(CSc1nnc(Cc2ccccc2)o1)NCCN1C(=O)CSC1=O
-3.3% | CC(=O)c1cccc(N(CC(=O)Nc2ccc(F)cc2F)S(C)(=O)=O)c1
-8.2% | O=C(Oc1cccc2ccccc12)c1ccncc1
-14.0% | COc1cccc(C(=O)N(Cc2cc3cc(C)ccc3[nH]c2=O)C(C)C)c1

Nothing new here: an excerpt of the list.
HPGD inh | canonical_smiles
-11.5% | O=C(CSc1nnc(Cc2ccccc2)o1)NCCN1C(=O)CSC1=O
-3.3% | CC(=O)c1cccc(N(CC(=O)Nc2ccc(F)cc2F)S(C)(=O)=O)c1
-8.2% | O=C(Oc1cccc2ccccc12)c1ccncc1
-14.0% | COc1cccc(C(=O)N(Cc2cc3cc(C)ccc3[nH]c2=O)C(C)C)c1

Next part.
HPGD inh | canonical_smiles
0.9% | COC(=O)[C@H](CC(C)C)NC(=O)N1CCN(c2cccc(C(F)(F)F)c2)CC1
u | c1ccc2c(SCc3cn4cccnc4n3)ncnc2c1
-9.7% | CC(=O)c1cccc(NC(=O)CCNS(=O)(=O)c2cccc(C(C)=O)c2)c1
5.1% | O=C(NCCc1ccccc1)C(=O)NC1CCCCC1
-5.9% | O=C(N1CCCCCC1)N1CCN(S(=O)(=O)c2ccccc2)CC1
-1.4% | COC(=O)C(O)(NC(=O)OCc1ccccc1)C(F)(F)F (stereo not drawn)
-6.6% | Cc1cc(C)cc(CC2CC(=O)N(c3ccc(Cl)cn3)C2=O)c1 (stereo not drawn)
-6.5% | CCCCNC(=O)C1C2C=CC(C2)C1C(=O)O (stereo not drawn)
-11.8% | O=C(NC1CCSC1=O)c1ccc(Cl)cc1 (stereo not drawn)
-12.0% | Cc1ccc(CN2CCCNC2=O)cc1
